# Screening data (PubChem BioAssay)
# VACV mCherry inh: vaccinia inhibition (mCherry reporter); Vaccinia virus mCherry reporter infection, fluorescence; about a quarter of the inactives have no number; Potency, µM (highest dose often 36.5 µM), for inactives: at the top dose activity change, negative = inhibition, actives largely listed as inhibitors; 310,000 tested, 0.63% active; active = well fitted inhibition curve with a large enough effect; inconclusive = small, poorly fitted or top-dose-only effect; inactive = no such curve, though single readings can be large or run the other way; tested in A549 cells; further: nearly all actives have a fitted effect of over 35% in size; inactives centre near -10
# Vaccinia Venus: vaccinia inhibition (Venus reporter). Vaccinia virus Venus reporter expression, fluorescence. AID 720580. 330,000 tested, 0.46% active. Potency, µM (series often up to 36.5 µM), inactives show at the highest dose activity change, negative = inhibition, actives largely listed as inhibitors; active means well fitted inhibition curve with a large enough effect; inconclusive means small, poorly fitted or top-dose-only effect; inactive means no such curve, though single readings can be large or run the other way; tested in A549 cells; further: nearly all actives have a fitted effect of over 30% in size; inactives centre near -10
# Numbers without * were called inactive; i = inactive; u = inconclusive; x = not tested or not shown; & = joins results of further samples; [ ] = remark or other dose. On the % scale 0 is the no-effect control and ±100 the full control effect; potency means the concentration at half of the fitted maximal effect.
SMILES,VACV mCherry inh,Vaccinia Venus
O=C(NCCc1ccccc1)c1cc(=O)[nH]c2ccccc12,i,-12%
OCC[C@@H]1C[C@H](O)[C@@H](O)[C@]2(OCc3cc(C(F)(F)F)ccc32)O1,i,-3%
C=CCC1C=C(C)CC(CC=C)N1 (stereo not given),i,-2%
COc1ccc(C(=O)Nc2ccc3[nH]ncc3c2)cc1OC,-4%,-6%
Cc1ccccc1NC(=O)COC(=O)Cc1cccc(C(F)(F)F)c1,-7%,4%
COCCN1C(=O)N(c2ccc(Cl)cc2)C(=O)C1CC(=O)Nc1cc(OC)cc(OC)c1 (stereo not given),i,-9%
CC(C)C(NC(=O)c1ccccc1NC(=O)C(C)(C)C)C(=O)N1CCOCC1 (stereo not given),-13%,-6%
CCc1cccc(NC(=O)Cn2nc(C)c3sc4ccccc4c3c2=O)c1,-9%,-1%
Cc1cc(C)c(S(=O)(=O)c2ccc(F)cc2C)c(Cl)n1,i,-21%
O=[N+]([O-])c1cc(/C=N/O)ccc1Oc1cccc(Cl)c1,u,-2%
CCOC(=O)c1ccccc1OCc1cc(/C=N/n2cncn2)ccc1OC,-19%,-26%
Cc1cccc(-n2c(O)c(/C=N/N3CCOCC3)c(=O)[nH]c2=S)c1,-14%,-3%
CCN1C(=O)c2ccccc2S(=O)c2ccc(C(=O)N3CCCCCC3)cc21 (stereo not given),10%,-3%
COc1cccc(CNC(=O)COc2cc(=O)n(C)c3ccccc23)c1,-2%,4%
CCOC(=O)C[C@H]1c2cc(C(F)(F)F)ccc2S(=O)(=O)N1C(C)C,i,-6%&-14%
COc1cc(NC(=O)CCc2c(C)noc2C)c(Cl)cc1C(=O)O,i,-1%
Cc1cc(Br)c(NC(=O)c2ccccc2[N+](=O)[O-])cc1C,i,-15%
CCOC(=O)CNC(=O)Nc1ccccc1C(=O)OC,-7%,-8%
Cc1cccc(NC(=O)C(C)Sc2nc3nc(C)cc(C)n3n2)c1 (stereo not given),-15%,-10%
CCN(CC)C(=O)CSc1nc2cc3c(cc2c(=O)n1Cc1ccco1)OCO3,i,-9%
CCOC(=O)CNC(=S)N(CCCN1CCCCCC1)Cc1cccs1,i,-15%
O=C1c2ccccc2NC(c2c(Cl)cccc2Cl)N1Cc1ccccc1 (stereo not given),x,u
COC(=O)c1cc(C)nc2c1c(=O)nc(SCc1c(C)cc(C)cc1C)n2C1CC1,-11%,-3%
Cc1noc(C)c1-c1ccc(C(=O)NCc2cccnc2)c2occc12,i,-13%
Cc1ccc(C)c(CN2CCC(CNC(=O)Nc3ccc(Br)cc3F)CC2)c1,u,u
COc1ccc(-c2nc3ccc(C(=O)NCC(OC)OC)cc3nc2-c2ccc(OC)cc2)cc1,-1%,-10%
COc1ccc(C(=O)NC(Nc2ccc(C)cc2)C(Cl)(Cl)Cl)cc1 (stereo not given),-24%,-22%
CCCCNC(=O)OC(C)CNC(=O)Oc1cccc(C)c1 (stereo not given),-10%,-2%
Cc1ccccc1CC1(C)C(=O)Nc2ccc(S(=O)(=O)NC3CCCCC3)cc21 (stereo not given),-17%,-6%
O=c1oc2ccccc2c2c1ccc1ccccc12,-13%,-17%
CCOC(=O)c1c(NC(=O)C2CCCO2)sc2c1CCC2 (stereo not given),-29%,-13%
Cc1cc(CN2CCC(N3CCC(C(=O)NC4CC4)CC3)CC2)cc(C)c1O,-5%,-9%
CN(C)CCCN(C(=O)c1cccc(N2C(=O)CCC2=O)c1)c1nc2cc3c(cc2s1)OCO3,u,-8%
O=C(COc1ccc(Cc2ccccc2)cc1)c1ccc(F)cc1,-3%,-13%
CN(CC(=O)Nc1ccccc1Cl)C(=O)c1cc(=O)[nH]c2ccccc12,0%,-11%
O=C(c1cccc(F)c1)N1CCc2ccccc21,-5%,-26%
COc1ccc(NC(=O)CSc2nccn2-c2ccccc2)c(OC)c1,x,-17%
O=C(NCCc1ccc(F)cc1)C1CCCO1 (stereo not given),-13%,-2%
CC(C)c1ccc(NC(=O)COC(=O)c2c[nH]c(=O)[nH]c2=O)cc1,i,-12%
O=C(c1ccco1)N1CCN(C(=O)c2cnn(-c3ccc(Cl)cc3)c2C2CCNCC2)CC1,i,-11%
CCCCCCCC/C=C\CCCCCCCC(=O)OC[C@@H](O)COP(=O)(O)O,i[3.33 µM],-12%[3.33 µM]
O=C(Nc1ccccn1)C(c1ccccc1)c1ccccc1,u,-7%
O=C1CN(C(=O)/C=C/c2cccc(Cl)c2)c2ccccc2N1,-15%,-8%
Cc1cc(C)nc(NS(=O)(=O)c2ccc(NS(=O)(=O)c3ccc(F)c(F)c3)cc2)n1,-21%,-6%
CC(=O)Oc1ccc2cc(-c3ccccc3)c(=O)oc2c1,-15%,-6%
COc1ccc2[nH]c(C)c(C(=O)CN3CCOCC3)c2c1,x,-13%
Cc1ccc(C)c(N2CCN(CCCNC(=O)Cn3cc4c(n3)CCCCC4)CC2)c1,-22%,-19%
COc1cc(/C=C(/NC(=O)c2ccccc2)C(=O)N2CCOCC2)c([N+](=O)[O-])cc1OC,-20%,-5%
Clc1cc(Cl)cc(Nc2ccccc2CN(C/C=C/c2ccc3c(c2)OCO3)Cc2ccccc2)c1,i,-7%
N#CCSc1ccc(-c2nc3ccccc3[nH]2)cn1,-1%,-5%
COC1OC2COC(c3ccccc3)OC2C(NC(C)=O)C1OC(C)=O (stereo not given),i,-6%
O=C(Cc1cn2ccsc2n1)Nc1nc2c(s1)CCCC2,x,5%
c1ccc(Nc2cccc3ccccc23)cc1,17%,11%
CCn1c(SCC(=O)N2CCC(C)CC2)nnc1-c1ccco1,-13%,-6%
Cc1ccc(/C([O-])=C(/C(=S)NCc2ccco2)[n+]2ccccc2)cc1[N+](=O)[O-],-14%,-3%
CCOc1ccccc1CNC(=O)c1ccc(Sc2ccc(Cl)cc2)c(NC(C)=O)c1,-1%,-13%
CC(NC(=O)Cc1ccsc1)c1ccc(Cl)cc1Cl (stereo not given),-30%,-5%
CCOC(=O)Cc1csc(NC(=O)Cc2ccccc2[N+](=O)[O-])n1,i,-4%
O=S(=O)(Nc1ccon1)c1cc(Cl)ccc1Cl,i,-8%
CCC(Cc1ccccc1)NC(=O)CSc1ccsc1[N+](=O)[O-] (stereo not given),-5%,-11%
# Going on with the list:
SMILES,VACV mCherry inh,Vaccinia Venus
COc1ccc(OC)c(NC(=O)c2cc(-c3ccc(F)cc3OC(C)C)n[nH]2)c1,10%,-17%
CCCCN1CC(N2CCN(C(=O)c3ccco3)CC2)CS1(=O)=O (stereo not given),0%,-5%
CCn1c2ccccc2c2cc(NC(=O)COc3cc(C)ccc3C)ccc21,-13%,-4%
CCn1c(=O)c2c(nc(SCc3ccccn3)n2C)n(C)c1=O,-7%,-9%
O=C(Nc1ccccc1)C1=C[C@@H](C2CC2)C[C@@H](OCc2ccc(CO)cc2)O1,-8%,-13%
NC(=O)C1CCCN(C(=S)Nc2ccccc2)C1 (stereo not given),i,0%
O=C(NCc1ccccc1)C1C(c2ccc3c(c2)OCO3)=Nc2ccccc2N1C(=O)c1ccco1 (stereo not given),u,-14%
COc1ccc(CCNc2nnc(C)c(=O)[nH]2)cc1OC,-7%,-9%
Cc1ccc(SCC(=O)N2CCc3ccccc32)cc1,x,-21%
O=C(c1nn(Cc2ccccc2)c(=O)c2ccccc12)N1CCc2ccccc2C1,x,4%
Cc1cc(Br)cn2c(Cc3cccc(F)c3)c(C3CCCCC3)nc12,12%,-6%
CC1CCc2c(sc(NC(=O)Cn3nnc(-c4ccc(C(F)(F)F)cc4)n3)c2C#N)C1 (stereo not given),-1%,0%
FC(F)(F)Oc1ccc(Nc2nc(N3CCOCC3)nc(N3CCOCC3)n2)cc1,0%[7.34 µM],-1%[7.34 µM]
OC1(c2ccccn2)COc2ccccc2O1 (stereo not given),-8%,-5%
Cc1c(C(=O)NCCCc2ccccc2)cccc1[N+](=O)[O-],-10%,-11%
CCC(CC)NC(=O)Nc1ccccc1C,-30%,9%
CC(=O)Oc1ccc(Cl)cc1CN(C(C)=O)C1CCCCC1,u,-4%
COC(=O)c1[nH]c2ccc(F)cc2c1NC(=O)Nc1ccc(OC)cc1,x,-4%
O=C1CC(Nc2ccc(N3CCOCC3)cc2)C(=O)N1c1cccc(C(F)(F)F)c1 (stereo not given),-19%,-4%
O=C(O)c1ccccc1C(=O)Nc1ccc(-c2csc(-c3ccccc3)n2)cc1,-8%,-24%

# Given with bars between the fields: entries from further up.
Compound | VACV mCherry inh | Vaccinia Venus
COC1OC2COC(c3ccccc3)OC2C(NC(C)=O)C1OC(C)=O (stereo not given) | i | -6%
O=C(Cc1cn2ccsc2n1)Nc1nc2c(s1)CCCC2 | x | 5%
c1ccc(Nc2cccc3ccccc23)cc1 | 17% | 11%
CCn1c(SCC(=O)N2CCC(C)CC2)nnc1-c1ccco1 | -13% | -6%
Cc1ccc(/C([O-])=C(/C(=S)NCc2ccco2)[n+]2ccccc2)cc1[N+](=O)[O-] | -14% | -3%
CCOc1ccccc1CNC(=O)c1ccc(Sc2ccc(Cl)cc2)c(NC(C)=O)c1 | -1% | -13%
CC(NC(=O)Cc1ccsc1)c1ccc(Cl)cc1Cl (stereo not given) | -30% | -5%
CCOC(=O)Cc1csc(NC(=O)Cc2ccccc2[N+](=O)[O-])n1 | i | -4%
O=S(=O)(Nc1ccon1)c1cc(Cl)ccc1Cl | i | -8%
CCC(Cc1ccccc1)NC(=O)CSc1ccsc1[N+](=O)[O-] (stereo not given) | -5% | -11%
COc1ccc(OC)c(NC(=O)c2cc(-c3ccc(F)cc3OC(C)C)n[nH]2)c1 | 10% | -17%
CCCCN1CC(N2CCN(C(=O)c3ccco3)CC2)CS1(=O)=O (stereo not given) | 0% | -5%
CCn1c2ccccc2c2cc(NC(=O)COc3cc(C)ccc3C)ccc21 | -13% | -4%
CCn1c(=O)c2c(nc(SCc3ccccn3)n2C)n(C)c1=O | -7% | -9%
O=C(Nc1ccccc1)C1=C[C@@H](C2CC2)C[C@@H](OCc2ccc(CO)cc2)O1 | -8% | -13%
NC(=O)C1CCCN(C(=S)Nc2ccccc2)C1 (stereo not given) | i | 0%
O=C(NCc1ccccc1)C1C(c2ccc3c(c2)OCO3)=Nc2ccccc2N1C(=O)c1ccco1 (stereo not given) | u | -14%
COc1ccc(CCNc2nnc(C)c(=O)[nH]2)cc1OC | -7% | -9%
Cc1ccc(SCC(=O)N2CCc3ccccc32)cc1 | x | -21%
O=C(c1nn(Cc2ccccc2)c(=O)c2ccccc12)N1CCc2ccccc2C1 | x | 4%
Cc1cc(Br)cn2c(Cc3cccc(F)c3)c(C3CCCCC3)nc12 | 12% | -6%
CC1CCc2c(sc(NC(=O)Cn3nnc(-c4ccc(C(F)(F)F)cc4)n3)c2C#N)C1 (stereo not given) | -1% | 0%
FC(F)(F)Oc1ccc(Nc2nc(N3CCOCC3)nc(N3CCOCC3)n2)cc1 | 0%[7.34 µM] | -1%[7.34 µM]
OC1(c2ccccn2)COc2ccccc2O1 (stereo not given) | -8% | -5%
Cc1c(C(=O)NCCCc2ccccc2)cccc1[N+](=O)[O-] | -10% | -11%
CCC(CC)NC(=O)Nc1ccccc1C | -30% | 9%
CC(=O)Oc1ccc(Cl)cc1CN(C(C)=O)C1CCCCC1 | u | -4%
COC(=O)c1[nH]c2ccc(F)cc2c1NC(=O)Nc1ccc(OC)cc1 | x | -4%
O=C1CC(Nc2ccc(N3CCOCC3)cc2)C(=O)N1c1cccc(C(F)(F)F)c1 (stereo not given) | -19% | -4%
O=C(O)c1ccccc1C(=O)Nc1ccc(-c2csc(-c3ccccc3)n2)cc1 | -8% | -24%

# The results go on:
SMILES,VACV mCherry inh,Vaccinia Venus
Cc1ccc(-n2nc3c(=O)n(CC(=O)NCc4ccco4)nc(C)c3c2C)cc1,u,-22%
COc1cccc(CNC(=O)CCNS(=O)(=O)c2ccc(Br)s2)c1,-21%,-11%
CC1(Cc2ccc3c(c2)OCO3)C(=O)Nc2c(Cl)ccc(Cl)c21 (stereo not given),-8%,-12%
CC(C)C12CN(C(=O)c3ccccc3[N+](=O)[O-])CC(C(C)C)(CN(C(=O)c3ccccc3[N+](=O)[O-])C1)C2=O,-14%,3%
CCOC(=O)N1CCN(C(=O)CS(=O)(=O)c2cn(Cc3cccc(F)c3)c3ccccc23)CC1,-16%,-6%
CCn1c(SCC(=O)c2cc(C)n(C)c2C)nnc1-c1ccccc1,x,-24%
Cn1ncc2c1ncn1nc(CCc3ccccc3)nc21,-5%,-7%
Cn1nccc1C(=O)NCC1CCC2(CCN(Cc3cccc4ncccc34)CC2)O1 (stereo not given),-4%,1%
O=C(O)c1ccc(-c2nc(-c3ccc(Cl)cc3Cl)cs2)cc1,-3%,-13%
COc1ccc(C2c3sc(=O)[nH]c3SC3C4CCC(C4)C23)cc1 (stereo not given),5%[1.46 µM],-15%
COc1cc(CN(C)CC2CCCN(CCc3cccc(C(F)(F)F)c3)C2)ccc1O (stereo not given),-6%,-15%
